Screens deposited in PubChem by several laboratories.
E coli growth: E. coli growth inhibition; Escherichia coli growth, OD600, 23 h; active compounds read low; OD600 absorbance (no concentration beside the values); 0.21% of 330,000 active; AID 1053175;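 active = OD600 absorbance below the run mean of sample wells minus 3.6 SD, in any replicate, cut at about 0.56 in these data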;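 also: stock transfer was 300 nL into about 60 µL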
MLL AF4-AF9 inh: inhibitors of human MLL-AF4/AF9 interaction. P42568. AlphaScreen, biotin-AF4 peptide binding to FLAG-AF9. inhibition, % at 10 µM. 0.47% of 350,000 active;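 active = every replicate reaching a set inhibition limit, whatever the replicate mean, cut at about 25% in these data; inconclusive = mean inhibition reaches that limit but some replicates miss it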;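 also: 0% = plate neutral control median and 100% = total signal loss; the record names both 10 and 1 µM as test concentration; the first replicate is given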
Target sequence (P42568 whole entry, looked up): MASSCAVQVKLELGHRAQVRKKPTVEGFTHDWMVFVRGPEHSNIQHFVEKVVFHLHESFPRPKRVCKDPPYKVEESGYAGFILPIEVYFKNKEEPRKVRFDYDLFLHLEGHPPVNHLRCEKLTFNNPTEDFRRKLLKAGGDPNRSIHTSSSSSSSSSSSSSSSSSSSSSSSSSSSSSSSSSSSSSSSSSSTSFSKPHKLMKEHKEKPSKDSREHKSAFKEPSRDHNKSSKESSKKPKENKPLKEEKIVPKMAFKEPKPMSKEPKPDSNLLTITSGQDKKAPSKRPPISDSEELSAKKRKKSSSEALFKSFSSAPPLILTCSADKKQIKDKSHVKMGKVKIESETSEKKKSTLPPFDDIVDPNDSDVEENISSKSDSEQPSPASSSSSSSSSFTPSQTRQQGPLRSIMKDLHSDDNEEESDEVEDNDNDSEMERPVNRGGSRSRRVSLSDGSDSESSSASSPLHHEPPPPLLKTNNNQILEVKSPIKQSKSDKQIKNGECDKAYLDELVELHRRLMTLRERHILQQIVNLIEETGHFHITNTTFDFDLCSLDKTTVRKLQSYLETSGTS
FGF22 binding: FGF22 (human) thermal shift binding. 1.5% of 340,000 active. Q9HCT0. recombinant FGF22 thermal shift, SYPRO orange fluorescence; percent of sucrose octasulfate shift, DMSO zero. calls only at 9.99 µM;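 active = melting point raised past a set limit in the mean and every replicate; inconclusive = no clear call; three in four hits are not shown here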
Target sequence (Q9HCT0 whole entry, looked up): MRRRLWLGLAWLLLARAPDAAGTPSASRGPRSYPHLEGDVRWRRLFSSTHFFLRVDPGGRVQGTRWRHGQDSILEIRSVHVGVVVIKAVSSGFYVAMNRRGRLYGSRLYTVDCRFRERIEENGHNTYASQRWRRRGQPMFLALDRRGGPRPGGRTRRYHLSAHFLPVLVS
Vif TR-FRET: inhibitors of Vif binding to APOBEC3G peptide, primary screen, biochemical, TR-FRET, GST-Vif 1-94, biotin-A3G peptide, dose response retest (AID 1117319); TR-FRET GST-Vif / biotin-A3G peptide binding; higher % means a stronger effect; test concentration not given here; strong numbers were not always called active; one-dose inhibition, %; IC50 in µM for titrated hits; 0.57% of 260,000 active;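 active = above the screen mean plus three standard deviations and confirmed in dose response; inconclusive = results disagree or hit not tested in dose response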;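 also: Vif residues 1-94 fused to GST binding biotinylated APOBEC3G peptide 110-148; 0% = full assay without inhibitor and 100% = GST in place of GST-Vif; retest series ran down from 100 µM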
rRNA inh HTS: inhibitors of bacterial rRNA selective over humanized ribosomes | 1.6% of 350,000 active | E. coli WT GFP vs humanized-ribosome RFP mutants, fluorescence, 24 h; active compounds read low; DMSO median 0, no signal -100 | AID 720706 | GFP signal change (wild-type ribosome), % (no concentration beside the values);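 active = significant combined selectivity score with lowered wild-type GFP, culture density cut under 30%, mutant RFP and density less affected; inactive = any of these conditions unmet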; also: one replicate is shown; some compounds called inactive have numbers as strong as hits
ALR inh: blocks human ALR sulfhydryl oxidase activity; P55789; purified ALR, DTT oxidation, H2O2 HRP-luminol luminescence; inhibition, % (test concentration not listed); 3.8% of 290,000 active; AID 485317;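 active = mean and each replicate at 75% or more; inconclusive = only one of the two met; inactive = neither met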;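 also: stock transfer was 7.5 nL into about 7.5 µL; 0% = neutral wells and 100% = wells with inactivated enzyme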
Target sequence (P55789 whole entry, looked up): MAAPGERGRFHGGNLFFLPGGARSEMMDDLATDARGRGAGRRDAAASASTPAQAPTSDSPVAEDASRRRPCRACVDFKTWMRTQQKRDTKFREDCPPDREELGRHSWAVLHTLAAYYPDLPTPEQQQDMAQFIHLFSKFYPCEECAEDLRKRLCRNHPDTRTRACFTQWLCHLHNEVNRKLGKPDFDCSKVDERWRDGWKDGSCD
HNF4A DNA FP: change in binding of human HNF4 alpha to DNA. activity change, % at 10 µM. AID 1224865. HNF4a-FITC DNA binding, fluorescence polarization, 1 h. 0.3% of 360,000 active. P41235; in the data active = activity change above about 30%, passing the limit was not always enough;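 also: controls were the assay level and a saturating level of protein; the project sought stronger binding though the title names inhibitors; some compounds called inactive have numbers as strong as hits; positive values seem to mean higher polarization but the record does not say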
rRNA inh HTS OD600: recorded beside rRNA inh HTS, whose call it bears; OD600 change, %; measured here: OD600 growth;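 optical density of the mix in the first replicate; 0 = DMSO median and -100 = no signal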
rRNA inh HTS RFP: recorded beside rRNA inh HTS, whose call it bears; RFP signal change, %; measured here: RFP humanized mutant strains;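 first replicate; 0 = DMSO median and -100 = no signal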
An asterisk follows results filed as active; & = joins results of further samples. Not all compounds are listed (hit frequency here may not be typical).

Results for C[C@H]1CN([C@@H](C)CO)C(=O)c2cc(NC(=O)C3CCCCC3)ccc2O[C@H]1CN(C)C(=O)NC1CCCCC1 ?
MLL AF4-AF9 inh: -9.9; FGF22 binding: inactive; rRNA inh HTS: 5; rRNA inh HTS OD600: 10; rRNA inh HTS RFP: -0.4

Results for CC1CCc2c(sc(NC(=O)c3ccc(Cn4cc([N+](=O)[O-])cn4)o3)c2C#N)C1 (centres undefined) ?
E coli growth: 0.71; Vif TR-FRET: inconclusive; ALR inh: 3; HNF4A DNA FP: -6.3

What do the screens show for `CCNC(=O)N1CCN(S(=O)(=O)c2ccc3c(c2)OCCCO3)CC1`?
E coli growth: 0.68; MLL AF4-AF9 inh: 0.9; FGF22 binding: inactive; Vif TR-FRET: -13%; rRNA inh HTS: 14; ALR inh: -1; HNF4A DNA FP: 2.9; rRNA inh HTS OD600: 11; rRNA inh HTS RFP: -1.4

How did CC(C)CC(=O)N=Nc1c(O)[nH]c2ccccc12 do in these assays?
E coli growth: 0.69; MLL AF4-AF9 inh: 1.7; FGF22 binding: inactive; Vif TR-FRET: 10%; rRNA inh HTS: 3; ALR inh: -3; HNF4A DNA FP: 0.5; rRNA inh HTS OD600: 0; rRNA inh HTS RFP: -0.4

How did COc1ccc(CNC(=O)c2ccc(=O)oc2)cc1OC do in these assays?
E coli growth: 0.74; Vif TR-FRET: inconclusive; ALR inh: -3; HNF4A DNA FP: 1.7

Results for CC#CCN1c2ccccc2[C@]23C[C@@H](C(=O)OC)N(C(=O)c4ccco4)C2=NC(C(=O)OC)=C(C(=O)OC)[C@H]13 ?
MLL AF4-AF9 inh: 1.9; FGF22 binding: inactive; rRNA inh HTS: 3; ALR inh: 0; HNF4A DNA FP: -3.4; rRNA inh HTS OD600: 21; rRNA inh HTS RFP: 8.8

How did CCSc1ccc(-c2nn(-c3ccccc3)cc2/C=C(/C#N)C(=O)NCCCOC)cc1 do in these assays?
E coli growth: 0.73; Vif TR-FRET: -1%; ALR inh: 43; HNF4A DNA FP: 0.5

Results for CC(C)CCNC(=O)C1CC(c2cccc(F)c2)=NO1 (centres undefined) ?
E coli growth: 0.66; MLL AF4-AF9 inh: -1.1; FGF22 binding: inactive; Vif TR-FRET: 16%; rRNA inh HTS: -2; ALR inh: 3; HNF4A DNA FP: 0.6; rRNA inh HTS OD600: -1; rRNA inh HTS RFP: -5.7

How did Cc1ccc(S(=O)(=O)N2C[C@@H]3[C@H]4CC[C@H](C4)[C@@H]3[C@@H](C)[C@H]2c2ccn(Cc3ccccc3)c2)cc1 do in these assays?
E coli growth: 0.69; MLL AF4-AF9 inh: 0.2; FGF22 binding: inactive; Vif TR-FRET: 5%; rRNA inh HTS: 17; HNF4A DNA FP: 1.0; rRNA inh HTS OD600: 21; rRNA inh HTS RFP: 33

Results for C[C@@H]1CN([C@H](C)CO)C(=O)c2cc(NC(=O)c3ccncc3)ccc2O[C@H]1CN(C)C(=O)Nc1ccc2c(c1)OCO2 ?
MLL AF4-AF9 inh: -2.5; FGF22 binding: inactive; rRNA inh HTS: -1; rRNA inh HTS OD600: -1; rRNA inh HTS RFP: 1.7

Results for O=C(NCCCN1CCOCC1)NC1CCCCC1 ?
E coli growth: 0.72; Vif TR-FRET: -5%; ALR inh: -4; HNF4A DNA FP: -3.7

What do the screens show for `C[C@]1(C(=O)NCCc2c[nH]c3ccccc23)C=C[C@@H](Cc2ccccc2)N1C(=O)c1ccccc1`?
E coli growth: 0.8; MLL AF4-AF9 inh: 5.4; FGF22 binding: inactive; Vif TR-FRET: 3%; rRNA inh HTS: -10; ALR inh: 3; HNF4A DNA FP: -1.2; rRNA inh HTS OD600: -22; rRNA inh HTS RFP: -10

What do the screens show for `COc1cc(/C=N/NC(=O)c2ccc(Cl)c(S(N)(=O)=O)c2)ccc1OCC(N)=O`?
MLL AF4-AF9 inh: -5.2; FGF22 binding: inactive; Vif TR-FRET: 2%; rRNA inh HTS: 9; ALR inh: -15; HNF4A DNA FP: 1.4; rRNA inh HTS OD600: 12; rRNA inh HTS RFP: 11

How did O=C(Nc1cc(Cl)ccc1N1CCCCC1)c1cccs1 do in these assays?
E coli growth: 0.72; Vif TR-FRET: 2%; ALR inh: 15; HNF4A DNA FP: -2.0

Results for CC1(C)C2CCC1(C)C1(C2)NC(=O)c2ccccc2O1 (centres undefined) ?
E coli growth: 0.62; MLL AF4-AF9 inh: 2.0; FGF22 binding: inactive; Vif TR-FRET: 9%; rRNA inh HTS: -3; HNF4A DNA FP: -1.8; rRNA inh HTS OD600: -7; rRNA inh HTS RFP: -9.9

How did CCOC(=O)c1ccc(NC(=S)N(CCCN2CCN(C)CC2)Cc2cccs2)cc1 do in these assays?
E coli growth: 0.71; MLL AF4-AF9 inh: 3.4; FGF22 binding: inactive; rRNA inh HTS: -14; ALR inh: -2; HNF4A DNA FP: 2.1; rRNA inh HTS OD600: -8; rRNA inh HTS RFP: 2.0

Results for C[C@@H]1CCCCO[C@H](CN(C)C(=O)Cc2ccccc2)[C@@H](C)CN([C@H](C)CO)C(=O)c2cc(NC(=O)c3ccccc3)ccc2O1 ?
MLL AF4-AF9 inh: 0.4; FGF22 binding: inactive; rRNA inh HTS: 0; rRNA inh HTS OD600: 2; rRNA inh HTS RFP: -1.2

Results for O=C(C[C@H]1CC[C@@H]2[C@H](COC[C@@H](O)CN2C(=O)Nc2ccc(F)cc2)O1)NCCCN1CCOCC1 ?
MLL AF4-AF9 inh: -35; FGF22 binding: inactive; rRNA inh HTS: 5; rRNA inh HTS OD600: 6; rRNA inh HTS RFP: -1.7

How did CSc1nc(-c2ccc(Cl)cc2)c(C#N)c(=O)n1C do in these assays?
E coli growth: 0.73; MLL AF4-AF9 inh: -0.8; Vif TR-FRET: -10%; rRNA inh HTS: -6; ALR inh: 1; HNF4A DNA FP: -1.6; rRNA inh HTS OD600: -8; rRNA inh HTS RFP: -3.7

What do the screens show for `CC(=O)Nc1cccc(C(=O)OCC(=O)N2CCN(C(=O)COC(=O)c3cccc(NC(C)=O)c3)CC2)c1`?
E coli growth: 0.69; MLL AF4-AF9 inh: 1.5; FGF22 binding: inactive; rRNA inh HTS: 1; HNF4A DNA FP: 1.4; rRNA inh HTS OD600: 8; rRNA inh HTS RFP: 0.5

What do the screens show for `CC1CCN(S(=O)(=O)c2ccc3ncn(CC(=O)N4CCN(C)CC4)c(=O)c3c2)CC1`?
E coli growth: 0.68; MLL AF4-AF9 inh: -0.3; FGF22 binding: inactive; Vif TR-FRET: -3%; rRNA inh HTS: 22; ALR inh: -1; HNF4A DNA FP: 5.7; rRNA inh HTS OD600: 14; rRNA inh HTS RFP: 0.3

What do the screens show for `S=C1NCN(CC2CC2)CN1`?
MLL AF4-AF9 inh: 11; FGF22 binding: inactive; rRNA inh HTS: 4; rRNA inh HTS OD600: 16; rRNA inh HTS RFP: -0.8

How did Nc1ccc2nc(-c3cc(Cl)c(N)c(Cl)c3)[nH]c2c1 do in these assays?
E coli growth: 0.69; Vif TR-FRET: 18%; HNF4A DNA FP: 5.6

How did Cc1ccc(N(Cc2ccccc2)C(=O)c2cc(S(=O)(=O)N3CCOCC3)ccc2Cl)cc1 do in these assays?
E coli growth: 0.73; MLL AF4-AF9 inh: -16; FGF22 binding: inactive; Vif TR-FRET: -7%; rRNA inh HTS: -8; HNF4A DNA FP: 5.2; rRNA inh HTS OD600: -18; rRNA inh HTS RFP: 4.1

How did COc1cccc(-c2csc(N3CCN(S(=O)(=O)c4ccc(F)cc4)CC3)n2)c1 do in these assays?
E coli growth: 0.72; Vif TR-FRET: -32%&-11%; ALR inh: -6; HNF4A DNA FP: 5.2

How did CCC(=O)N1CC(=O)N2[C@H](CO)[C@@H](c3ccc(C#CC4CCCCC4)cc3)[C@H]2C1 do in these assays?
MLL AF4-AF9 inh: 4.0; FGF22 binding: inactive; rRNA inh HTS: 8; rRNA inh HTS OD600: -2; rRNA inh HTS RFP: -0.2

How did Cn1c(=O)[nH]c(=O)c2c1nc(SCCCO)n2CCCc1ccccc1 do in these assays?
E coli growth: 0.7; MLL AF4-AF9 inh: -1.2; FGF22 binding: inactive; rRNA inh HTS: 6; HNF4A DNA FP: 1.7; rRNA inh HTS OD600: 12; rRNA inh HTS RFP: -0.3

How did Cc1cc(C)cc(NC(=O)c2ccc(CN3CCc4ccccc4C3)cc2)c1 do in these assays?
E coli growth: 0.65; MLL AF4-AF9 inh: 0.8; FGF22 binding: inactive; rRNA inh HTS: -16; ALR inh: -4; HNF4A DNA FP: 3.2; rRNA inh HTS OD600: -14; rRNA inh HTS RFP: 7.6

How did O=C(Cc1ccc(NS(=O)(=O)c2cccc(C(F)(F)F)c2)cc1)NCCN1CCOCC1 do in these assays?
E coli growth: 0.65; MLL AF4-AF9 inh: -0.3; FGF22 binding: inactive; Vif TR-FRET: 0%; rRNA inh HTS: 4; ALR inh: -22; HNF4A DNA FP: 0.1; rRNA inh HTS OD600: 6; rRNA inh HTS RFP: -0.2

What do the screens show for `CCCC(=O)Nc1ccc2c(c1)C(=O)N(C)[C@@H]1CC[C@H](CC(=O)O)O[C@@H]1CO2`?
MLL AF4-AF9 inh: -15; FGF22 binding: inactive; rRNA inh HTS: 0; rRNA inh HTS OD600: 0; rRNA inh HTS RFP: 0.5

How did COc1cccc2cc(C(=O)c3ccccc3)oc12 do in these assays?
E coli growth: 0.64; MLL AF4-AF9 inh: -2.2; FGF22 binding: inactive; Vif TR-FRET: -5%; rRNA inh HTS: 13; ALR inh: -2; HNF4A DNA FP: 0.2; rRNA inh HTS OD600: 9; rRNA inh HTS RFP: 1.8

Results for Cc1csc(NC(=O)c2ccccc2O)n1 ?
E coli growth: 0.65; Vif TR-FRET: 6%; ALR inh: -45; HNF4A DNA FP: 0.2

How did O=C(NC(=S)NNC(=O)c1ccccc1O)c1ccco1 do in these assays?
E coli growth: 0.37*; MLL AF4-AF9 inh: 2.4; FGF22 binding: inactive; Vif TR-FRET: inconclusive; rRNA inh HTS: -22; ALR inh: 28; HNF4A DNA FP: -2.7; rRNA inh HTS OD600: -45; rRNA inh HTS RFP: 2.3

Results for O=C(Nc1nc2ccccc2[nH]1)c1ccc(Cl)c([N+](=O)[O-])c1 ?
E coli growth: 0.73; MLL AF4-AF9 inh: 0.8; Vif TR-FRET: inconclusive; rRNA inh HTS: -2; ALR inh: 1; HNF4A DNA FP: -4.8; rRNA inh HTS OD600: 1; rRNA inh HTS RFP: -1.5

How did O=C(c1ccc2c(c1)OCCO2)C1CCN(C(=O)c2ccc(F)cc2)CC1 do in these assays?
E coli growth: 0.7; Vif TR-FRET: 79%; ALR inh: -1; HNF4A DNA FP: -3.7

Entries shown so far with an aryl thioether with sulfur outside any ring, in the order listed:
How did CCSc1ccc(-c2nn(-c3ccccc3)cc2/C=C(/C#N)C(=O)NCCCOC)cc1 do in these assays?
E coli growth: 0.73; Vif TR-FRET: -1%; ALR inh: 43; HNF4A DNA FP: 0.5

How did CSc1nc(-c2ccc(Cl)cc2)c(C#N)c(=O)n1C do in these assays?
E coli growth: 0.73; MLL AF4-AF9 inh: -0.8; Vif TR-FRET: -10%; rRNA inh HTS: -6; ALR inh: 1; HNF4A DNA FP: -1.6; rRNA inh HTS OD600: -8; rRNA inh HTS RFP: -3.7

How did Cn1c(=O)[nH]c(=O)c2c1nc(SCCCO)n2CCCc1ccccc1 do in these assays?
E coli growth: 0.7; MLL AF4-AF9 inh: -1.2; FGF22 binding: inactive; rRNA inh HTS: 6; HNF4A DNA FP: 1.7; rRNA inh HTS OD600: 12; rRNA inh HTS RFP: -0.3
